Screening data: PubChem, Fisher Drug Discovery Resource Center
NPYLR7 agonist: mosquito NPYLR7 agonism. HEK293T NPYLR7/Galpha15, GCaMP6s calcium fluorescence. activation, % at 10 µM. 0.15% of 270,000 active. AID 1259423; in the data active means activation above about 40%;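 further: 0% = vehicle and 100% = reference agonist at the receptor; some compounds past the cut are filed as inactive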
NPYLR7 agonist max-min: recorded beside NPYLR7 agonist, whose call it bears; activation, %; measured here: Max-Min RFU normalised activation; some inactives read as strong as hits;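 span of the calcium signal over five minutes; 0% = vehicle and 100% = native peptide agonist; compound fluorescence can raise it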
The depositor's hits bear a star. The list is partial; the hit share may differ from the screen's.

SMILES	NPYLR7 agonist	NPYLR7 agonist max-min
COc1ccc(-n2nnnc2CNC(=O)Nc2cccs2)cc1	3	1
N#Cc1ccc(CN(Cc2cccn2Cc2ccc(C(F)(F)F)cc2)CC2CCCCC2)cc1	2	14
O=C(NC1CCOC1)c1cccc(OC2CCN(C(=O)C3CC3)CC2)c1 (stereo unspecified)	4	3
COc1cc(NC(=O)CCC2CCCN(Cc3cccc4cnccc34)C2)cc(OC)c1 (stereo unspecified)	8	7
COC(=O)c1ccc(N=Nc2c(-c3ccccc3)[nH]n(-c3nc(-c4ccc(OC)cc4)cs3)c2=O)cc1	0	-5
Cc1ccccc1C(=O)N1CCN(C(c2ccccc2)c2ccc(F)cc2)CC1 (stereo unspecified)	-4	10
O=C(Cn1cccn1)N1CCOC(CCCc2ccccc2)C1 (stereo unspecified)	5	0
COc1cccc(C(=O)NCC2c3cc(OC)c(OC)cc3CCN2C(=O)Nc2ccccc2F)c1 (stereo unspecified)	1	6
Cc1cccn2c(=O)c(C(=O)NCCC(C)C)c(O)nc12	0	9
O=C(NCCCc1ccccc1)c1ccc(-c2ccc(Oc3ccccc3)cc2)s1	3	-1
CC(=O)N1CCN(c2ncccc2CNC(=O)c2ccccc2-n2cccn2)CC1	6	7
COc1ccccc1CCC(=O)N1CCCC(CO)(Cc2ccccc2)C1 (stereo unspecified)	4	4
COC(=O)C1C2C=CC3(CN(CC(C)C)C(=O)C13)O2 (stereo unspecified)	6	3
NC(=O)CSc1nnc(-c2ccco2)o1	3	0
COc1ccc(Nc2cc(C)nc(Nc3ccc(NC(=O)C(C)C)cc3)n2)cc1	7	6
COc1ccc(-c2nc3ccc(C)cn3c2NC(=O)C(Cl)Cl)cc1OC	6	5
CC(=O)Nc1cc(NCc2ccccc2Cl)ccc1F	0	0
C=CCc1cccc2cc(C(=O)Nc3cccc(C(=O)O)c3)c(=O)oc12	-20	-19
COc1ccc(-c2nnc(NC(=O)C(Cc3ccccc3)NC(=O)C34CC5CC(CC(C5)C3)C4)s2)cc1 (stereo unspecified)	15	6
COc1ccccc1C1C(C#N)=C(SCC(N)=O)NC(=O)C1C#N (stereo unspecified)	10	9
C=CCN1N=C(C)Cn2c1nc1c2c(=O)n(CCCC)c(=O)n1C	4	6
O=C(CN1CCCC1c1ccc(O)cc1)N1CCCc2ccccc21 (stereo unspecified)	-15	-18
CCOCCn1cnc(-c2ccccc2)c1-c1ncnn1CC	21	11
O=C(NCC1CCCN(Cc2cccs2)C1)c1ccccc1 (stereo unspecified)	3	3
Cc1nc2c(=O)n(CCc3ccccc3)nc(-c3cccs3)c2s1	0	-3

(cont.)
SMILES	NPYLR7 agonist	NPYLR7 agonist max-min
c1csc(-c2nccn2Cc2ccccc2Cn2cccn2)c1	4	2
CCCCN(C(=O)COC(=O)C1CC1)c1c(N)n(CCC)c(=O)[nH]c1=O	4	2
COc1ccc(/C=c2\sc3nc(-c4ccncc4)nn3c2=O)cc1OC	24	22
CC(C)(C)NC(=O)CNC(=O)c1nccnc1-c1nc2ccccc2s1	2	0
Cc1ccccc1-c1ccc2nc(-c3ccccc3)c(CCC(=O)N3CCC(C(N)=O)CC3)n2c1	0	-4
CC(C)NC(=O)c1cnc(N2CCN(Cc3ccccc3C#N)C2=O)s1	-4	-7
OCC#Cc1csc(-c2nccn2CCc2ccccc2)c1	30	11
Cc1ccc(C)c(Cn2c(=O)c3c(nc4n(CC5CCCO5)c(C)c(C)n34)n(C)c2=O)c1 (stereo unspecified)	11	8
CSCc1ccc(C(=O)Nc2cc(Cl)ccc2C)cc1	7	3
Cc1ccc2cc(C)c(NN=Cc3cccnc3)nc2c1	6	8
COCc1cc(N2CCN(C/C=C/c3ccccc3)CC2)nc(SCc2cccc(C(=O)NCc3ccco3)c2)n1	4	13
CN(Cc1cccc(Cl)c1)C(=O)c1ccc(NC(=O)C2CC2)cc1	-2	1
COCCNc1ccc2ncc(-c3cccc(N)c3)n2n1	-3	-6
COc1ccc(OC)c(C2SCCN2C(=O)Nc2cccc(F)c2)c1 (stereo unspecified)	25	27
S=C(Nc1ccc2cn[nH]c2c1)Nc1ccccc1Cl	-4	-11
O=C(NC1CCN(c2ccccc2C(=O)N2CCN(C3CCCCCC3)CC2)CC1)c1ccc(Cl)cc1Cl	32	41
CC(NC(=O)CCCNC(=O)c1ccc(F)cc1F)c1ccco1 (stereo unspecified)	-3	-5
Cc1ccnn2c(-c3ccccc3)c3c(=O)n(C)c(=O)n(C)c3c12	13	10
Cc1ccccc1C1c2ccsc2CCN1C(=O)CN(CC1CCCO1)S(=O)(=O)c1cccc2cccnc12 (stereo unspecified)	-5	7
Cn1cnnc1SCc1cn2cc(Cl)ccc2n1	3	0
CCN1CCN(C(=O)c2ccc(CSc3nnc(-c4ccc(C)cc4)n3-c3cccc(C)c3)cc2)CC1	14	17
CC(C(=O)N(C)Cc1ncc[nH]1)n1cnc2ccccc21 (stereo unspecified)	-1	3
COc1ccccc1N1CCN(CCCS(=O)(=O)O)CC1	6	4
CCCCNc1cc(C)nc2c(-c3ccc(C)cc3)cnn12	-1	-5
Cc1ccc(-c2csc3nc(CSc4nnc5n4CCCCC5)[nH]c(=O)c23)s1	2	10

Continuation.
SMILES	NPYLR7 agonist	NPYLR7 agonist max-min
Cc1cccc(CO[C@]2(C(=O)NCC3CC3)CC(OCc3ccccc3F)[C@@H]3OC(C)(C)O[C@@H]3C2)c1 (stereo partly specified)	25	16
CCn1c(C2CCN(C(=O)COCC(F)(F)C(F)F)CC2)n[nH]c1=O	-4	-6
O=C(CNCc1ccc(Cl)cc1)N1CCc2ccccc2C1	-7	-9
Cc1cnc(N[C@H]2COC[C@@H]2N2CCCCC2)nc1N(C)C	19	9
CCOC(C)c1nc(CN(C)Cc2ccc(C#N)cc2)cs1 (stereo unspecified)	1	-3
O=C(Cn1c(=O)[nH]c(=O)c2ccccc21)NCCCCOc1ccccc1	-2	-2
COc1ccc(CN(C)C(=O)C2CN(C(C)=O)c3ccccc3O2)c(OC)c1 (stereo unspecified)	3	0
Cc1csc(SCC(=O)Nc2nnc(-c3ccccc3)o2)n1	7	5
COCCNC(=O)c1cccc(OC2CCN(Cc3cn(C)c4ccccc34)CC2)c1	-3	-7
COC(=O)c1ccc(-c2noc(CN(C)Cc3ccsc3)n2)cc1	0	-3
Cc1ncccc1C(=O)Nc1ccccc1-n1ccc(C(N)=O)n1	-1	-3
CCCc1nnc2n1Nc1nc3ccccc3nc1S2	0	-3
COCCNC(=O)c1ccc(OC2CCN(CC3=CC[C@H]4C[C@@H]3C4(C)C)CC2)c(Cl)c1	6	4
COc1cc(C2c3cccn3CCCN2Cc2ccc3c(c2)OCCO3)cc(OC)c1OC (stereo unspecified)	13	20
Cc1cc(=O)[nH]cc1NC(=O)CSc1ccc2ccccc2c1	2	-3
Cc1cccc(S(=O)(=O)Nc2ccc(Nc3ccc(-n4nc(C)c(C)c4C)nn3)cc2)c1	-6	-11
COc1cc([N+](=O)[O-])ccc1NC(=O)COC(=O)c1c(C)oc(C)c1C	3	0
O=C(Cn1nnnc1CN1CCCCCC1)NC[C@H]1C[C@H]2C=C[C@H]1C21CC1	-3	-7
CC1CN(C(C)CNc2ncnc3ccsc23)CC(C)O1 (stereo unspecified)	14	9
O=C(c1ccc(F)cc1)N(CCN1CCOCC1)Cc1nccn1Cc1ccccc1F	4	14
CSCCC(=O)NCCN1C(=O)SC(=Cc2ccc(OC(F)F)cc2)C1=O	-1	-3
Nc1nc(SCc2nc3ccccn3c2Br)n[nH]1	3	0
O=C(c1ccccc1OC(F)F)N1CCN(S(=O)(=O)c2ccc3c(c2)OCCO3)CC1	2	-1
CC(C)c1ncc(C(O)(c2ccccc2)c2ccccc2)n1C	-19	-24
Cc1cccc(C)c1Cn1c(C)c(C(=O)NCc2ccccn2)sc1=O	10	5

Next structures
SMILES	NPYLR7 agonist	NPYLR7 agonist max-min
O=C(C1CCCO1)N1CCN(c2nccc(CCC(F)(F)F)n2)CC1 (stereo unspecified)	-4	-8
Cc1ccsc1/C=N\NC(=O)CSc1nc2ccccc2n1Cc1ccccc1	-2	-1
COc1cc2c(cc1CN1CCOC(CN)C1)OCCCO2 (stereo unspecified)	5	3
COc1ccc(-c2ccc(=O)n(Cc3ccccc3C)n2)cc1	5	-2
Cc1nccnc1N1CCCCC1	-7	-4
CC(NC(=O)NCCN1CCCCC1C)c1nc2c(s1)CCCC2 (stereo unspecified)	1	-11
CCn1c(=NC(=O)CCS(=O)(=O)c2ccc(F)cc2)sc2ccccc21	1	-3
COc1ccccc1C(CC(=O)NCc1cccnc1)c1c[nH]c2ccccc12 (stereo unspecified)	-2	-3
O=C(CCCn1nc(-c2ccco2)ccc1=O)NC1CCCCCC1	2	4
Cc1cc(OCC2CN(C(=O)c3ccc4snnc4c3)CCO2)ccc1Cl (stereo unspecified)	26	28
CC1C(=O)N(Cc2cccc3cccnc23)C(=O)N1c1ccccc1 (stereo unspecified)	1	7
COc1cccc(NC(=O)N(Cc2ccc(OS(=O)(=O)c3ccc(F)cc3)cc2)C(C)C)c1	25	26
CC1COc2c(F)c(F)cc3c(=O)c(C(=O)O)cn1c23 (stereo unspecified)	-7	-16
COc1ccc(OCCN2CCC(C(=O)NC(C)c3cccc4ccccc34)CC2)cc1 (stereo unspecified)	10	1
COC(=O)C1=C(C)N(Cc2ccccc2)C(=O)NC1c1cc(OC)c2c(c1)OCO2 (stereo unspecified)	1	-1
Cc1nc2c(c(=O)[nH]1)CCN(C(=O)c1ccc(CN3CCC(C)CC3)o1)C2	-1	-1
CCOC(=O)C1(CCCc2ccccc2)CCN(C(=O)CC2CCS(=O)(=O)C2)CC1 (stereo unspecified)	4	0
CCC(C(=O)N(C)Cc1sccc1C)n1cccn1 (stereo unspecified)	8	-8
CCNc1cc(NCCNC(=O)c2cccs2)nc(C)n1	5	2
CC(Sc1nnc(C(F)(F)F)n1C)C(=O)Nc1ccc2c(c1)OCO2 (stereo unspecified)	1	-1
CCCn1c(=O)c2c(nc3n(C)c(C)c(C)n23)n(C)c1=O	2	0
Cc1ccccc1C1(O)CCN(C(=O)c2cnn3ccn(C)c23)C1 (stereo unspecified)	6	6
Cc1ccccc1C(=O)NCCC(=O)N1CCCCC1C (stereo unspecified)	-3	-4
CCOC(=O)CNc1ccccc1C(=O)N1CCCCCCC1	19	10
CC1(C)CC(=O)C(C(c2ccc(F)cc2)C2C(=O)CC(C)(C)CC2=O)C(=O)C1	4	5

Further results follow:
SMILES	NPYLR7 agonist	NPYLR7 agonist max-min
Cc1ccc(C(=O)NNC(=O)c2nn(-c3ccccc3)c3c2CCC3)c(C)c1	2	34
Cc1cc(CNC(=O)C2CCCN(c3nc(-c4ccccc4)nc4c3CCC4)C2)on1 (stereo unspecified)	-1	-3
O=C(NN=Cc1c(O)ccc2ccccc12)c1n[nH]c2c1CCC2	17	24
CN(C(=O)C1CC1)C(Cc1ccc(F)cc1F)C1CCN(C(=O)/C=C/c2cccs2)CC1 (stereo unspecified)	6	2
CC(C)(C)c1ccc(NC(=O)c2c3c(nn2C2CCS(=O)(=O)C2)CCC3)cc1 (stereo unspecified)	14	7
Cc1ccccc1Cn1c(=O)c(C(=O)O)nn(-c2cccc(F)c2)c1=O	37	55
N#C/C(=C/c1ccc(F)c(F)c1)c1ccno1	5	2
COC(=O)c1ccc(COC(CN2CCN(C(=O)c3cccs3)CC2)c2ccc(Cl)cc2)cc1 (stereo unspecified)	3	-3
Cc1ccc(C)c(CSc2ccc(NC(=O)C3CC3)nn2)c1	0	1
CCOC(=O)C1=C(C)OC(=N)C(C#N)C1c1ccccc1[N+](=O)[O-] (stereo unspecified)	-7	-9
O=C(Nc1ccc(Br)cc1)c1cccn(OCc2ccccc2)c1=O	9	20
COc1cc(-c2cnnc(NCCCN3CCCC3=O)n2)cc(OC)c1OC	19	10
Cc1nc2cc(C(F)(F)F)ccc2n1C1CCN(C(=O)CCc2cccs2)CC1	-2	-4
COc1cc(OC)cc(-c2onc(C)c2C(=O)NCCC#N)c1	19	10
C=CCn1ccnc1-c1cc(Cl)c(OC)c(OC)c1	25	15
CCc1nc2ccc(C(=O)N3CCN(S(=O)(=O)CC)CC3)cn2c1N(C)C(=O)C1CCCCC1	-4	-9
O=C(CSc1ncnc2c1nnn2Cc1ccc(F)cc1)OCc1ccccc1	16	17

Structures listed so far containing two or more sulfur atoms, in the order listed:
SMILES	NPYLR7 agonist	NPYLR7 agonist max-min
Cc1nc2c(=O)n(CCc3ccccc3)nc(-c3cccs3)c2s1	0	-3
Cc1ccccc1C1c2ccsc2CCN1C(=O)CN(CC1CCCO1)S(=O)(=O)c1cccc2cccnc12 (stereo unspecified)	-5	7
Cc1ccc(-c2csc3nc(CSc4nnc5n4CCCCC5)[nH]c(=O)c23)s1	2	10
Cc1csc(SCC(=O)Nc2nnc(-c3ccccc3)o2)n1	7	5
CSCCC(=O)NCCN1C(=O)SC(=Cc2ccc(OC(F)F)cc2)C1=O	-1	-3
Cc1ccsc1/C=N\NC(=O)CSc1nc2ccccc2n1Cc1ccccc1	-2	-1
CCn1c(=NC(=O)CCS(=O)(=O)c2ccc(F)cc2)sc2ccccc21	1	-3

Whole records, quoted from the list. Screens in order: NPYLR7 agonist, NPYLR7 agonist max-min
COc1cc(OC)cc(-c2onc(C)c2C(=O)NCCC#N)c1 in the list: 19, 10
O=C(Nc1ccc(Br)cc1)c1cccn(OCc2ccccc2)c1=O in the list: 9, 20
Cc1cc(CNC(=O)C2CCCN(c3nc(-c4ccccc4)nc4c3CCC4)C2)on1 (stereo unspecified) in the list: -1, -3
Cc1ccccc1Cn1c(=O)c(C(=O)O)nn(-c2cccc(F)c2)c1=O in the list: 37, 55
COc1cc(-c2cnnc(NCCCN3CCCC3=O)n2)cc(OC)c1OC in the list: 19, 10

In a second layout: entries from further up
| structure | NPYLR7 agonist | NPYLR7 agonist max-min |
| --- | --- | --- |
| COc1cc(-c2cnnc(NCCCN3CCCC3=O)n2)cc(OC)c1OC | 19 | 10 |
| COC(=O)c1ccc(COC(CN2CCN(C(=O)c3cccs3)CC2)c2ccc(Cl)cc2)cc1 (stereo unspecified) | 3 | -3 |
